Mtb hypoxia rep = reduces hypoxia-regulated biosensor signal in M. tuberculosis. AID 1159583. fluorescence inhibition, % (no concentration beside the values). 300,000 tested, 0.1% active. M. tuberculosis hypoxia-regulated fluorescent reporter, fluorescence;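 active = 35 to 45% if threefold the growth effect, above 45% if 1.5-fold the growth effect; inactive = the rest, general growth blockers included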;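 note: wells of about 50 µL received 100 nL stock; 0% = vehicle wells and 100% = reference inhibitor wells; whole bacteria with a GFP reporter of the hypoxia response; strong numbers were not always called active; many hits fall short of the cut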
BJeLR viability = BJeLR cell viability loss | BJeLR (HRASV12) viability, CellTiter-Glo ATP luminescence, 48 h; reference of the scale not given here | inhibition, % (concentration not given with the values) | 300,000 tested, 0.17% active | AID 1554;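 active = replicate mean above 50%; inconclusive = above 50% but judged a plate artefact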;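 note: 50 nL library stock added to about 25 µL; numbers are from one replicate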
Autofluor counter = flagged as autofluorescent in microsphere protease counterscreen | compound autofluorescence counterscreen, microsphere flow cytometry; stronger effect = higher value | fluorescence intensity (concentration not given with the values) | 360,000 tested, 3.1% active | AID 624483;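 active = at least 3 SD above the mean of all compounds, about 16000 in these data; inconclusive = too few beads counted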;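 note: 100 nL of 1 mM stock went into each well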
ugtP null kill = kills S. aureus RN4220 lacking UgtP | S. aureus RN4220 ugtP deletion, OD600 growth, 16 h; some inactives read as strong as hits | growth inhibition, % (concentration not given with the values) | 330,000 tested, 0.54% active;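 active = z-score under -3 and OD600 up to 0.15 on both plates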;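 note: plate controls were untreated wells for no effect and antibiotic for full effect; wells of about 80 µL received 100 nL stock; the first replicate is given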
PrP 5UTR inh = suppresses PrP 5' UTR mRNA reporter expression. cell-based PrP 5' UTR mRNA reporter, plate reader. inhibition, % (no concentration beside the values). 340,000 tested, 0.35% active. AID 488862;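 active = every replicate at 50% or more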;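 note: 0 = median of the neutral control wells; tested in H4 reporter cells; numbers are from one replicate; inactives centre near -14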
RN4220 kill = kills Staphylococcus aureus RN4220. S. aureus RN4220 growth, OD600, 16 h. inhibition, % (concentration not given with the values). 330,000 tested, 0.33% active. AID 1259311;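 active = z-score of -3 or lower and OD600 up to 0.18 on both plates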;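 note: plate controls were untreated cells for no effect and reference antibiotic for full effect; stock transfer was 100 nL into about 80 µL; one replicate is shown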
Mtb hypoxia rep growth = recorded beside Mtb hypoxia rep, whose call it bears; growth inhibition, %; measured here: M. tuberculosis growth (absorbance);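 0% = vehicle and 100% = reference antibiotic; read after six days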
Active calls of the source: *; ? = inconclusive; · = no result given.

Values run as follows: Mtb hypoxia rep, Mtb hypoxia rep growth, BJeLR viability, Autofluor counter, ugtP null kill, PrP 5UTR inh, RN4220 kill
1: CC(=O)N1CC(C)Oc2ccc(S(=O)(=O)NC(CC(=O)O)c3ccccc3)cc21 (stereo not given)
 : 6.7, 5.2, 5.1, 6098, 13.6, -14.9, 2.8
2: Nc1ccc2ccccc2c1[N+](=O)[O-]
 : 5.7, 3.8, ·, 3650, -4.7, -7.3, 3.7
3: c1csc(-c2nnc(COc3ccc4c(c3)OCO4)o2)c1
 : 21.6, 15.1, 2.8, 4225, 5.0, -25.0, 5.0
4: CC(=O)c1c(C)nn(CCC(=O)O)c1C
 : 6.6, 3.0, 9.3, 3449, 2.9, -21.9, 4.3
5: Cc1cc(F)ccc1S(=O)(=O)Nc1ccc(C(=O)N2CCCCCC2)cc1
 : 1.8, -0.4, ·, 4003, -2.7, -3.9, 1.4
6: O=S(=O)(NCc1ccc(Cl)cc1)NCc1ccccc1F
 : 6.5, 12.0, 3.6, 2106, 1.7, -13.1, 4.4
7: CCc1ccccc1-n1c(SCC(=O)NC)nnc1-c1cccnc1
 : -5.4, 3.6, 4.5, 7539, 0.2, -10.9, 0.2
8: Cc1cc(-c2nnc(CCC(=O)NC(Cc3ccccc3)c3ccccc3)o2)no1 (stereo not given)
 : -2.6, 5.8, 0.0, 4013, 11.2, -16.2, 4.9
9: COc1ccccc1OCCCn1cc(C=O)c2ccccc21
 : 4.6, 2.2, -0.7, 3307, 7.3, -50.3, 8.4
10: Cc1ccc2c(c1)N(CC(=O)N1CCCC1)C(=O)CO2
 : 1.4, 5.0, -1.6, 3592, 4.4, -8.9, 2.4
11: Cc1sc2nc(COC(=O)c3ccc(N4CCCC(C)C4)c([N+](=O)[O-])c3)[nH]c(=O)c2c1C (stereo not given)
 : ·, ·, 3.1, 2325, ·, -13.5, ·
12: COc1ccc(N2CCN(C(=O)c3ccc(N4C(=O)NC5CC4(C)Oc4ccccc45)cc3)CC2)cc1 (stereo not given)
 : ·, ·, 2.3, 4601, 6.8, -4.7, 0.3
13: Cc1cc2ccccn2c1C(=O)c1ccc([N+](=O)[O-])cc1[N+](=O)[O-]
 : -5.4, -5.3, -1.1, 4043, 5.1, -10.0, -1.7
14: CC(=Cc1ccc(C(=O)O)cc1)c1ccc2c(c1)C(C)(C)CCC2(C)C
 : 0.8, 4.5, ·, ·, 98.8*, ·, 76.6
15: O=C(NN=C/C(Br)=C/c1ccccc1)c1ccccc1F
 : -1.4, 2.0, ·, ·, -7.8, ·, -3.1
16: COCc1ccc(CN2CCCC(CO)(Cc3ccccc3)C2)o1 (stereo not given)
 : 0.4, 11.0, 0.5, 5077, 6.4, -9.4, 4.9
17: CC1=C(C(=O)N2CCCCC2)C(c2cccs2)NC(=O)N1 (stereo not given)
 : 5.2, -3.0, 1.9, 4825, 5.2, -2.5, -1.3
18: CSc1ccccc1NC(=O)CN(C)C(=O)/C=C/c1ccccc1
 : 5.5, -1.3, ·, 3214, 7.2, 3.5, 2.5
19: CCOCCCNC(=O)C(Cc1ccccc1)NC(=O)c1ccco1 (stereo not given)
 : 1.4, 9.0, -2.9, 5764, 0.7, -15.3, 5.0
20: CCc1ccccc1Nc1nc(-c2cccnc2)cs1
 : -2.5, 7.5, -0.6, 3544, -10.8, -6.6, 5.7
21: COC(=O)CSc1nnc2cc(C)c3ccccc3n12
 : -5.8, 9.4, 8.4, ?, 8.9, -16.8, 2.3
22: O=C(NC1CC1)C1CCN(S(=O)(=O)c2ccc(Cl)c([N+](=O)[O-])c2)CC1
 : 5.3, 4.4, ·, 3450, 7.5, -27.4, 9.5
23: CCOc1ccc(NC(=O)C2CCC(CNc3c(N4CCOCC4)c(=O)c3=O)CC2)cc1 (stereo not given)
 : 8.7, 0.8, -3.9, 4351, 14.4, -6.1, 4.0
24: COC(=O)Cn1cc(C(=O)C2CC2)c2ccccc21
 : -2.2, -2.6, ·, 3479, 15.9, -8.7, 4.4
25: COc1ccccc1-c1nnc(SCC(=O)c2c(N)n(C3CC3)c(=O)[nH]c2=O)n1C
 : 3.3, -3.2, ·, 8954, 4.6, -19.8, 0.1
26: CCSc1nc2sc3c(c2c(=O)n1-c1ccc(OC)cc1)CCN(C)C3
 : 13.7, 13.0, -18.8, 5914, 6.1, -6.1, 2.8
27: COC(=O)c1nn(-c2ccccc2)c(Cl)c1C=NOCc1ccc(Cl)cc1Cl
 : 0.2, 4.0, ·, ·, -1.0, ·, 0.7
28: COC(=O)c1ccc2c(c1)C(=O)N(C1CCCCC1)C2=O
 : ·, ·, 10.8, 5124, 8.4, -11.1, -1.4
29: CCC(=O)OC1CC(C)N(C(=O)c2ccccc2)c2ccc(C)cc21 (stereo not given)
 : ·, ·, 3.2, 3981, 5.7, -14.4, 1.8
30: Cc1ccc(-c2cc3nc(-c4ccccc4)cc(N4CCOCC4)n3n2)cc1
 : ·, ·, 3.4, 2912, 24.3, -15.1, 0.9

Some of the entries so far, screen by screen.
1. CC(=O)N1CC(C)Oc2ccc(S(=O)(=O)NC(CC(=O)O)c3ccccc3)cc21 (stereo not given)
2. Nc1ccc2ccccc2c1[N+](=O)[O-]
3. c1csc(-c2nnc(COc3ccc4c(c3)OCO4)o2)c1
4. CC(=O)c1c(C)nn(CCC(=O)O)c1C
5. Cc1cc(F)ccc1S(=O)(=O)Nc1ccc(C(=O)N2CCCCCC2)cc1
6. O=S(=O)(NCc1ccc(Cl)cc1)NCc1ccccc1F
7. CCc1ccccc1-n1c(SCC(=O)NC)nnc1-c1cccnc1
8. Cc1cc(-c2nnc(CCC(=O)NC(Cc3ccccc3)c3ccccc3)o2)no1 (stereo not given)
9. COc1ccccc1OCCCn1cc(C=O)c2ccccc21
10. Cc1ccc2c(c1)N(CC(=O)N1CCCC1)C(=O)CO2

assay / compound | 1 | 2 | 3 | 4 | 5 | 6 | 7 | 8 | 9 | 10
Mtb hypoxia rep | 6.7 | 5.7 | 21.6 | 6.6 | 1.8 | 6.5 | -5.4 | -2.6 | 4.6 | 1.4
Mtb hypoxia rep growth | 5.2 | 3.8 | 15.1 | 3.0 | -0.4 | 12.0 | 3.6 | 5.8 | 2.2 | 5.0
BJeLR viability | 5.1 | · | 2.8 | 9.3 | · | 3.6 | 4.5 | 0.0 | -0.7 | -1.6
Autofluor counter | 6098 | 3650 | 4225 | 3449 | 4003 | 2106 | 7539 | 4013 | 3307 | 3592
ugtP null kill | 13.6 | -4.7 | 5.0 | 2.9 | -2.7 | 1.7 | 0.2 | 11.2 | 7.3 | 4.4
PrP 5UTR inh | -14.9 | -7.3 | -25.0 | -21.9 | -3.9 | -13.1 | -10.9 | -16.2 | -50.3 | -8.9
RN4220 kill | 2.8 | 3.7 | 5.0 | 4.3 | 1.4 | 4.4 | 0.2 | 4.9 | 8.4 | 2.4

11. Cc1sc2nc(COC(=O)c3ccc(N4CCCC(C)C4)c([N+](=O)[O-])c3)[nH]c(=O)c2c1C (stereo not given)
12. COc1ccc(N2CCN(C(=O)c3ccc(N4C(=O)NC5CC4(C)Oc4ccccc45)cc3)CC2)cc1 (stereo not given)
13. Cc1cc2ccccn2c1C(=O)c1ccc([N+](=O)[O-])cc1[N+](=O)[O-]
14. CC(=Cc1ccc(C(=O)O)cc1)c1ccc2c(c1)C(C)(C)CCC2(C)C
15. O=C(NN=C/C(Br)=C/c1ccccc1)c1ccccc1F

assay / compound | 11 | 12 | 13 | 14 | 15
Mtb hypoxia rep | · | · | -5.4 | 0.8 | -1.4
Mtb hypoxia rep growth | · | · | -5.3 | 4.5 | 2.0
BJeLR viability | 3.1 | 2.3 | -1.1 | · | ·
Autofluor counter | 2325 | 4601 | 4043 | · | ·
ugtP null kill | · | 6.8 | 5.1 | 98.8* | -7.8
PrP 5UTR inh | -13.5 | -4.7 | -10.0 | · | ·
RN4220 kill | · | 0.3 | -1.7 | 76.6 | -3.1

Next part:
Values run as follows: Mtb hypoxia rep, Mtb hypoxia rep growth, BJeLR viability, Autofluor counter, ugtP null kill, PrP 5UTR inh, RN4220 kill
31: O=C1NC(=S)NC1Cc1ccc(O)cc1 (stereo not given)
 : 9.8, 7.5, ·, 3907, 0.4, 5.4, -1.5
32: CC(C)(C)c1ccc(C(=O)N2CCN(c3ccc(N4CCOCC4)nn3)CC2)cc1
 : -5.7, -12.8, 10.6, 4090, 6.0, -16.7, -0.7
33: CCOC(=O)c1c(C)[nH]c(C)c1C(=O)COC(=O)/C=C/c1ccc(Cl)cc1
 : 11.7, 0.4, -5.5, 2606, -1.3, -11.0, 8.3
34: COc1cccc(CC(=O)OC(C)C(=O)Nc2ncc(Cl)cc2Cl)c1 (stereo not given)
 : -3.8, 5.4, -7.3, 6020, 2.1, 3.5, 4.4
35: COc1ccccc1NC(=S)N(Cc1cccs1)C1CCCC1
 : 0.5, -1.5, -9.3, 3290, 7.7, 4.2, 2.8
36: COc1ccc(C(CNC(=O)c2cccc(NS(=O)(=O)c3ccccc3)c2)N2CCCC2)cc1 (stereo not given)
 : -2.6, 5.8, ·, 6451, 7.2, -3.1, 1.7
37: C=CCNc1ncnc2ccccc12
 : 3.7, 3.6, -3.4, 4213, 11.2, -15.3, 5.7
38: CC(C)c1ccc(C2/C(=C(/O)c3ccc(F)cc3)C(=O)C(=O)N2CCCN2CCOCC2)cc1 (stereo not given)
 : -0.3, -6.4, -1.7, 3279, 9.0, -12.7, 3.8
39: S=c1[nH]nc(C2CCCCC2)n1/N=C/c1cccs1
 : ·, ·, -4.2, 23451*, ·, 6.4, ·
40: O=C(Cn1nnc(-c2ccncc2)n1)NCCc1ccccc1
 : 15.5, 3.3, -2.5, 10608, 4.8, -30.9, 6.0
41: CCCCC(CCC(=O)Nc1ccc(C(=O)OC)cc1)C(=O)O (stereo not given)
 : ·, ·, 0.4, 4322, 4.5, -7.0, 2.9
42: Cc1cccc(N2C(N)=NC(N)=NC23CCCCC3)c1
 : 2.1, 0.4, -0.8, 3357, 12.9, 7.5, 9.5
43: O=C(O)c1ccc(N2C(=O)C3ON(c4ccccc4)C(c4ccccc4F)C3C2=O)cc1 (stereo not given)
 : ·, ·, 11.6, 5068, -5.4, -13.7, 1.7

Screening data: PubChem, several laboratories
